# N370S GC = inhibitors or activators of N370S glucocerebrosidase for Gaucher disease. P04062. N370S GC spleen homogenate, 4MU-glucoside fluorescence. Potency, µM (doses to about 59.4 µM), for the others: top-dose activity change, negative = inhibition, usual class: inhibitors. hit rate 0.092% among 330,000. AID 2101;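 also: 0% = full enzyme activity and -100% = no enzyme basal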
# FEN1 inhibitor = inhibitors of human flap endonuclease 1; hit rate 0.35% among 390,000; AID 588795; Recombinant FEN1 flap cleavage, fluorescence, 15 min; Potency, µM (doses to about 114 µM), for the others: at the top dose activity change, negative = inhibition, most hits filed as inhibitors; P39748; also: nearly all actives have a fitted effect of over 65% in size
# Target sequence (P39748 whole entry, looked up): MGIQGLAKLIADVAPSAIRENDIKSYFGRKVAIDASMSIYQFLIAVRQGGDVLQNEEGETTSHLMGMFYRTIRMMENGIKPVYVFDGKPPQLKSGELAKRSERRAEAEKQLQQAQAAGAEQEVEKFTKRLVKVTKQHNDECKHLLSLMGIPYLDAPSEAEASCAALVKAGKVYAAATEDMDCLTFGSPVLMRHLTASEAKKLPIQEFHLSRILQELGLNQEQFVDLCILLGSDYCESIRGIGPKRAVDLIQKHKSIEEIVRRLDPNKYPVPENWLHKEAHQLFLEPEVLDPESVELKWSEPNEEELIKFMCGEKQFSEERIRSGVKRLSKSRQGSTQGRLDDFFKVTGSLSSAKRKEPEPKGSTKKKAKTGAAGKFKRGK
#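 Reaction started by adding substrate (50 nM final) to 10 nM enzyme after 15 min room-temperature compound preincubation. Reads at 0 and 15 min, with data normalized and fitted to a four-parameter Hill equation.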
# Numbers without * were called inactive; ? = inconclusive; . = not tested or not shown; & = joins results of further samples. Calls follow the shape of the dose curve; as a rule, active = well fitted curve in the direction sought with a large enough effect; inconclusive = small, poorly fitted or top-dose-only effect, or another doubt; inactive = no such curve, though single readings can be large; an effect the other way counts as inactive or inconclusive. Unless noted, % is scaled to controls: 0 for no effect and ±100 for the full control effect; potency is read from the fitted curve at half-maximal effect.
SMILES,N370S GC,FEN1 inhibitor
Cc1ccc(N2CCN(C(=O)c3cccc([N+](=O)[O-])c3)CC2)cc1Cl,-4.3%,-6.1%
CC(C)(C)OC(=O)C[C@H]1C/C=C\C[C@@H](CC(=O)NCCO)C(=O)NCCOC1=O,.,17.9%
Cc1ccc(N2C(=O)C3CC(c4ccccc4)=C4C5C=CC(C6C(=O)N(c7ccc(C)cc7)C(=O)C56)C4C3C2=O)cc1 (configuration not stated),-0.5%,-13.3%
Cc1cc(C)c[n+](C(C)C(=O)c2ccc(-c3ccccc3)cc2)c1 (configuration not stated),-19.4%,-3.6%
CCOC(=O)n1cc(-c2cnc(CNC(=O)C(C)(c3ccccc3)c3ccccc3)o2)c2ccccc21,?,-17.2%
Cc1ccc(C)c(NC(=O)C(=O)NCC2CCCN2S(=O)(=O)c2cccs2)c1 (configuration not stated),-2.2%,5.3%
C/C(=N\Nc1c([N+](=O)[O-])c(C)nn1C)c1ccc(F)cc1F,10.6%,-5.5%
COc1ccc(-n2nc(C(=O)Nc3ccc(C)cn3)c3c4ccccc4n(C)c3c2=O)cc1,.,0.2%
Cc1c(NC(=O)c2cccs2)cccc1-c1nc2ccccc2s1,11.9%,7.9%
CN1C(=O)S/C(=C\c2ccccc2OCc2ccc(C(=O)O)cc2)C1=O,8.4%,6.7%
Cc1ccc(NC(=O)C2CCN(S(=O)(=O)c3ccc4c(c3)NC(=O)C(C)S4)CC2)c(C)c1 (configuration not stated),-18.5%,0.8%
Nc1nc(-c2ccc(Cl)cc2)nnc1-c1ccc(Br)cc1,-4.1%,2.6%
Cc1cc(=O)[nH]c(SCc2cccc(F)c2)n1,7.3%,-1.1%
Fc1cccc(-c2c(-c3ccccc3)ncc3cc(F)ccc23)c1,.,-8.5%
CCOC(=O)N1CCN(C(=O)c2cccc(-n3c(=S)[nH]c4cc(Cl)ccc4c3=O)c2)CC1,-19.4%,5.1%
O=C(CCN1C(=O)/C(=C/c2ccccc2)SC1=S)NNC(=O)c1ccncc1,-8.2%,-2.1%
O=C(CN1C(=O)NC2(CCc3ccccc32)C1=O)Nc1cccc(Cl)c1 (configuration not stated),.,11.0%
O=C(Nc1nnc(S(=O)(=O)N2CCCC2)s1)c1ccccc1Cl,-1.6%,19.6%&-0.3%
CS(=O)(=O)N(CCc1ccccc1)CC(=O)Nc1ccccc1,12.6%,-3.5%
CC(CO)(CO)NCc1ccc(-c2ccccc2)cc1,-23.3%,8.4%

# Reprinted at random: four records from the list, in no set order.
SMILES,N370S GC,FEN1 inhibitor
CCOC(=O)n1cc(-c2cnc(CNC(=O)C(C)(c3ccccc3)c3ccccc3)o2)c2ccccc21,?,-17.2%
Cc1cc(C)c[n+](C(C)C(=O)c2ccc(-c3ccccc3)cc2)c1 (configuration not stated),-19.4%,-3.6%
O=C(Nc1nnc(S(=O)(=O)N2CCCC2)s1)c1ccccc1Cl,-1.6%,19.6%&-0.3%
CC(C)(C)OC(=O)C[C@H]1C/C=C\C[C@@H](CC(=O)NCCO)C(=O)NCCOC1=O,.,17.9%

# (continued)
SMILES,N370S GC,FEN1 inhibitor
COc1ccc(C(CNC(=O)c2cc3c(s2)CCC(C)C3)N2CCCC2)cc1 (configuration not stated),.,-21.5%
Cc1ccccc1S(=O)(=O)N1[C@@H](c2ccc(Cl)cc2)C(C(=O)O)=CC[C@H]1c1ccc(Cl)cc1,.,-1.4%
O=C(CSc1ccc(Br)cc1)NC1CCCCCC1,.,-2.9%
Cc1cc(C)c(NC(=O)CN2C(=O)NC3(CCCCC3)C2=O)c(C)c1,1.3%,-0.7%
CC(=O)Cc1nsc(NC(=O)c2ccc(-c3cc(Cl)ccc3Cl)o2)n1,5.3%,-1.5%
CSCCC(NC(=O)COc1ccccc1)C(=O)N1CC(C)CC(C)C1 (configuration not stated),.,-18.4%
Cc1cccc(NC(=O)C2CCN(S(=O)(=O)c3cccc4nsnc34)CC2)n1,-0.3%,0.1%
NC(N)=S,-1.5%,1.5%
NNC(=O)c1ccccc1OCCOc1ccccc1,-7.4%,3.1%
NS(=O)(=O)c1cc(Cl)c(Cl)c(S(N)(=O)=O)c1,-3.3%,16.5%
Cn1c(CNC(=O)CNS(=O)(=O)c2ccc(Cl)cc2)cc(=O)n(C)c1=O,1.6%,-0.8%
CC(C)Cc1oc(C(=O)O)cc1CN1CCOCC1,12.2%,-9.9%
Cc1c(N=C2C=CC(=O)c3ccccc32)c(=O)n(-c2ccccc2)n1C,-9.7%,-25.2%
COc1c(C)cc(S(=O)(=O)NC2CC(C)(C)NC(C)(C)C2)c(C)c1C,11.4%,-6.6%
CCCn1c(=N)n(CC(=O)c2ccc(Cl)cc2)c2ccccc21,-4.0%,-3.1%
O=C(Cc1ccccc1)NC1CCSc2ccccc21 (configuration not stated),3.5%,-0.7%
CCCCOc1ccc(C2/C(=C(\O)c3ccc4c(c3)OCCO4)C(=O)C(=O)N2CCCN2CCOCC2)cc1 (configuration not stated),-5.1%,2.6%
COC(=O)c1c(NC(NC(=O)C(C)C)C(Cl)(Cl)Cl)sc2c1CCC2 (configuration not stated),10.5%,-5.4%
CC(NC(=O)COC(=O)C1CCN(c2ccc(C(F)(F)F)cn2)CC1)c1ccc(F)cc1 (configuration not stated),.,-13.9%
Cc1nc([N+](=O)[O-])c(NCCO)n1Cc1ccccc1,-7.3%,-6.6%
CN(CC(=O)Nc1ccc(Cl)cc1)CC(=O)Nc1ccc(F)c(F)c1F,4.0%,-4.7%
CCN1CCN(C(=O)CN2C(=O)c3ccccc3S2(=O)=O)CC1,-4.6%,-1.7%
CCOc1ccc2c(c1)c(=O)c(S(=O)(=O)c1ccc(C)cc1)cn2CC(=O)Nc1ccc(C)cc1,.,4.4%
O=c1nc2ccccc2c2n1CC(CN1CCN(C(c3ccccc3)c3ccccc3)CC1)N2 (configuration not stated),-8.2%,-2.5%
CCN(C(=O)COC(=O)c1[nH]c(=O)[nH]c(=O)c1N)c1ccccc1,-3.7%,-5.9%
CCOC(=O)c1nnn(-c2nc(OC)nc(N3CCCC3)n2)c1-c1ccccc1,-23.4%,5.0%
CC(=O)Oc1ccc2c(c1)OC(c1ccccc1)CC21CC(C)(C)NC(=O)N1 (configuration not stated),-2.1%,-4.2%
O=C(c1ccc(Cl)cc1)c1oc2ccccc2c1CS(=O)c1ccc(Cl)cc1 (configuration not stated),7.1%,-14.1%
CCN(CC)c1c(-c2ccccc2)c2cc(C)ccc2[nH]c1=O,-3.3%,19.2%
COc1cccc(CNC(=O)C2CCN(S(=O)(=O)N3CC(C)CC(C)C3)CC2)c1 (configuration not stated),-0.6%,-3.8%
Cc1cccc(C(C)C)c1NC(=O)COC(=O)CNS(=O)(=O)c1ccccc1,-0.2%,-2.2%
CC1(C)CC(=O)c2c(oc3ccc(NS(=O)(=O)c4cccc5cccnc45)cc23)C1,22.3%,1.5%
COc1ccccc1OCc1ccc(C(=O)NCc2cccnc2)o1,5.7%,-12.1%
COc1ccc(Nc2nnc(C)c3ccccc23)cc1C(N)=O,0.8%,-15.4%
CC(C)NCC(O)c1ccc(O)c(O)c1 (configuration not stated),1.1%&-3.2%&-3.4%&2.0%&-0.1%&-0.8%,5.2%
CN1OC(COC(=O)c2ccc(Cl)cc2)CC1c1ccccc1 (configuration not stated),18.9%,5.3%
CCOC(=O)COc1ccc(C(=O)Nc2cccc(Cl)c2C)cc1,-3.1%,3.6%
COc1ccc(COc2ccccc2C(=O)Nc2ccccn2)cc1[N+](=O)[O-],1.8%,-0.3%
Cc1ccccc1C(=O)c1c[nH]c(C(=O)NCCc2ccccn2)c1,-6.0%,-2.0%
CN(C1CCS(=O)(=O)C1)S(=O)(=O)c1ccccc1 (configuration not stated),14.4%,7.2%
COC(=O)c1ccc(N2C(=O)CC(N3CCOCC3)C2=O)cc1 (configuration not stated),3.3%,-5.8%
Oc1ccc(C[C@@H]2CNCCN2CCCCC2CCCCC2)cc1,?,-7.1%
COc1ccc(Br)cc1[C@H]1[C@H]2C=CC[C@@H](C)[C@@H]2C(=O)N1Cc1ccccc1,5.4%,-18.1%
COC(=O)c1ccsc1-n1cc(C#N)c(=O)n(C)c1=O,4.0%,-10.0%
Cc1nc([N+](=O)[O-])c(C(=O)OCc2cccc(Br)c2)n1C,-5.5%,-15.5%
COc1cccc(C2=NOC(C(=O)Nc3cc(OC)c(OC)c(OC)c3)C2)c1 (configuration not stated),-1.9%,-7.7%
COc1ccccc1NC(=O)CSc1nnc2c3ccccc3n(C)c2n1,.,-22.6%
CCn1c(=O)cc(C(=O)OC)sc1=Nc1ccc(F)c(F)c1,9.0%,2.2%
CC1CCCN(C(=O)CN2C(=O)CSc3ccc(S(=O)(=O)N4CCOCC4)cc32)C1 (configuration not stated),1.3%,-14.3%
CCN(Cc1nc(-c2ccc(OC)c(OC)c2)no1)C(=O)c1ccc2c(c1)OCO2,-4.7%,-2.5%
O=C(/C=C/c1cccc(Oc2ccccc2)c1)N1CCOCC1,-5.2%,19.6%
Cc1ccc(NC(=O)CCNS(=O)(=O)c2ccc3c(c2)c(=O)n(C)c(=O)n3C)cc1C,0.7%,-1.9%
CCN(CC)CCn1c(=N)n(CC(O)COc2cccc(C)c2)c2ccccc21 (configuration not stated),-2.9%,-2.0%
CC(NC(=O)CNC(=O)c1cccs1)c1cccc(C(F)(F)F)c1 (configuration not stated),.,5.2%
CCOc1cc(S(=O)(=O)N2CCN=C2Cc2ccccc2)ccc1F,-24.0%,-1.7%
COc1ccc(S(=O)(=O)N2CCCCC2)cc1NC(=O)c1ccco1,-4.9%,3.8%
CN1C(=O)SC(Nc2ccccc2C(=O)O)C1=O (configuration not stated),5.5%,9.1%
Cc1ccc2nc(SCC(=O)c3ccc(Cl)s3)[nH]c2c1,11.5%,-7.0%
CC1(C)C(CC2OCC(CN3CCCCC3)O2)[C@H]2CC[C@@H]1C2 (some centres not stated),1.1%,2.1%
COC(=O)c1c(C)[nH]c(C(=O)COC(=O)CCNS(=O)(=O)c2cccc(C(F)(F)F)c2)c1C,.,-2.0%

# Going on with the list.
SMILES,N370S GC,FEN1 inhibitor
CCNc1c(NC(=O)c2ccc3c(c2)OCO3)c(=O)oc2ccccc12,4.7%,-7.0%
N#C/C(=C\c1c(N2CCC(C(N)=O)CC2)nc2ccccn2c1=O)C(=O)NCc1ccco1,-2.6%,-1.0%
CCN1CCN(C(=O)C2CCC(=O)N(CCCN3CCCC3=O)C2)CC1 (configuration not stated),-2.5%,20.7%
Cc1cc(C)nc(NS(=O)(=O)c2ccc(NC(=O)C3(c4ccccc4)CCCC3)cc2)n1,-4.5%,-3.9%
Cc1cc(=O)oc2cc(OCC(=O)N3CCN(c4ccc(F)cc4)CC3)ccc12,5.2%,4.4%
CC1(C)CCC2=C(O1)c1ccccc1C(=O)C2=O,-13.0%&4.8%&-3.3%,?
COc1cc(C2CC(=O)Oc3c2c(=O)n(C)c2ccccc32)ccc1O (configuration not stated),-2.3%,?
COC(=O)C1CCN(CC(N)=O)CC1,.,-3.6%
COc1ccc2sc(N(CCCN(C)C)C(=O)c3nc4ccccc4s3)nc2c1,6.4%,-3.2%
COc1ccc(C(=O)NCC(=O)N2CCCC(C)C2)cc1OC (configuration not stated),4.0%,0.8%
COc1ccc(N(CC(=O)Nc2cc(Cl)ccc2OC)S(=O)(=O)c2c(C)[nH]c(=O)[nH]c2=O)cc1,?,3.4%
Cc1cc(F)ccc1S(=O)(=O)Nc1ccccc1C(=O)Nc1ccc2[nH]c(=O)[nH]c2c1,24.6%,-9.1%
Cc1cccc2sc(NC(=O)CN3C(=O)C4CC=CCC4C3=O)nc12 (configuration not stated),-16.7%,-1.1%
C=CC[C@]12CCc3sccc3C1N(c1ccc(C(=O)OCC)cc1)C2=O (some centres not stated),.,-24.6%
Cn1c(=O)[nH]c(=O)c2c1nc(N1CCCCC1)n2C/C=N/Nc1ccc(C(=O)O)cc1,-12.6%,-1.4%
COc1ccc(N2CCN(S(=O)(=O)c3ccc4c(c3)OCCO4)CC2)cc1,-1.4%,-2.9%
Nc1ncnc2c1nc(Br)n2[C@@H]1O[C@H]2COP(=O)(O)O[C@@H]2[C@@H]1O,-8.0%&4.0%,.
O=C(c1ccccc1)c1nn(-c2ccccc2)c2nnc(Cc3ccccc3)c(=O)n12,24.2%,-7.3%
CC(=O)Nc1cc(C(F)(F)F)ccc1OCC1CCCO1 (configuration not stated),-4.9%,-5.6%
Clc1ccc(Cl)c(OCCN2CCOCC2)c1,-2.1%,-2.7%

# Overlap with the part before: 2 entries, followed by the next part.
SMILES,N370S GC,FEN1 inhibitor
CC(=O)Nc1cc(C(F)(F)F)ccc1OCC1CCCO1 (configuration not stated),-4.9%,-5.6%
Clc1ccc(Cl)c(OCCN2CCOCC2)c1,-2.1%,-2.7%
CC(C)NS(=O)(=O)c1ccc(NC(=O)C(C)OC(=O)CCC(=O)c2cccs2)cc1 (configuration not stated),.,-10.2%
CCCNC(=O)N1[C@H](c2ccc(C)s2)[C@@H](C)C(=O)[C@@H](C)[C@@H]1c1ccc(C)s1,.,18.6%
COc1ccc(C)cc1NC(=O)c1cc2c(=O)n3ccccc3nc2n1C,-11.5%,-12.6%
CCS(=O)(=O)N1CCC(c2nc3ccccc3[nH]2)CC1,-12.0%,-3.7%
CC(C)CCNC(=O)C1CCN(S(=O)(=O)c2ccc(-n3cnnn3)cc2)CC1,-16.7%,0.4%
CCOC(=O)c1cc(-c2ccccc2)n(CC(=O)Nc2cc(Cl)c(OC)cc2OC)c1C,.,2.1%
Cc1ccc2c(c1)c(=O)c(C(=O)c1ccccc1)cn2Cc1ccccc1F,.,-8.2%
CC12C(=O)N(c3ccc(OC(=O)c4ccco4)cc3)C(=O)C1C1c3ccccc3C2c2ccccc21 (configuration not stated),6.4%,3.5%

# Only part of the results is shown, and most or all hits are left out here.
